KSHV LANA nucl: inhibitors of KSHV LANA-nucleosome binding, primary screen, biochemical, fluorescence polarization, FITC-LANA1-23, chicken nucleosomes. z-score (no concentration beside the values). 51,000 tested, 0.3% active. AID 720717, 2013. FITC-LANA1-23 / chicken nucleosome fluorescence polarization; active compounds read low;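 active = both repeat wells score below -2 in polarization z-score versus plate sample wells, excluding overly bright wells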;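 also: 100 nL library stock added to about 30 µL; numbers are from one replicate; some results filed as inactive read as strong as hits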
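System – purified chicken nucleosomes with FITC-labelled LANA N-terminal peptide (1-23) · Amount – 240 nM purified chicken nucleosomes (480 nM peptide binding sites), final · Also added – 50 nM FITC-LANA1-23 probe · Medium – TEN-BT buffer, pH 7.5 · Incubation – compound with peptide–nucleosome mix 10–45 min at room temperature · Detection – fluorescence polarization, ex 480 nm, em 535 nm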
Ab BasE inh: BasE siderophore enzyme inhibitors, primary screen, biochemical, Acinetobacter baumannii ATCC 17978, fluorescence polarization. 84,000 tested, 0.1% active. AID 485350, 2010. purified BasE, fluorescence polarization binding displacement. inhibition, % (concentration not given with the values);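 active = both replicates above 25% with normal brightness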;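 also: 0% = negative plate control signal and 100% = positive plate control signal; stock transfer was 100 nL into about 30 µL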
The depositor's hits bear a star; nt = no result given; & = joins results of further samples.

nr	SMILES	Ab BasE inh	KSHV LANA nucl
1	CCC(=O)Nc1nnc(-c2cccc(OC)c2)o1	0.5	-0.53
2	O=C(CCN1CCCCC1)N1N=C(c2ccc(Cl)cc2)CC1c1ccco1 (stereo not given)	-6.3	0.59
3	O=C(COc1ccc2c(c1)CCC2)N1CCC2(CC1)OCCO2	0.2	0.017
4	CCn1cc(SCC(=O)NCc2ccc3c(c2)OCO3)c2ccccc21	-0.8	-0.32
5	COc1ccc(-c2cc(C(F)(F)F)c(C#N)c(SCCCn3c(=O)[nH]c4ccccc43)n2)cc1	1.7	nt
6	Cc1ccc(NS(=O)(=O)c2ccc(NC(=O)CCC(=O)O)cc2)cc1C	-1.6	nt
7	CC1CC(C)CN(C(=O)c2ccc(N3CC4CC(C3)c3cccc(=O)n3C4)c(NC(=O)c3ccc(F)cc3)c2)C1 (stereo not given)	-1.1	-0.9
8	COC(=O)c1cnc2c(C(F)(F)F)cccc2c1OC	-1.8	2.8
9	Cc1ccc(O)c(C(=O)c2coc(=N)c(C(=O)NC(C)C)c2)c1	0.7	nt
10	O=C(CC12CC3CC(CC(C3)C1)C2)N1CCCC1	1.4	nt
11	O=C(NC1CCCCC1)N(Cc1nc2ccccc2c(=O)[nH]1)C1CCCC1	3.0	-0.27
12	COc1ccc(C2=[N+]([O-])C(C)(C)N(O)C2C)cc1 (stereo not given)	1.0	nt
13	COC(=O)N/N=C1\CC2CCC1(C)C2(C)C (stereo not given)	3.2	0.11
14	CC(Oc1ccc(C(=O)c2ccccc2)cc1)C(=O)NN (stereo not given)	-0.5	nt
15	CCc1nc(C)ccc1O	-1.3	0.8
16	Cc1[nH]c(=O)c(C#N)cc1-c1ccncc1	0.8	-1.4&0.021&-0.3
17	COc1ccc(C(CC(=O)NCc2cccs2)n2cccc2)cc1 (stereo not given)	1.7	-1.2
18	Cc1c(C#N)c(NC(=O)c2ccc(Cl)cc2)n(CC2CC2)c1C	-3.0	0.54
19	CCOC(CCn1c(SCC(N)=O)nc2c(sc3ccccc32)c1=O)OCC	-9.2	-0.44
20	CC(=O)OC1OCCOC1OC(C)=O (stereo not given)	1.8	0.19
21	CC(NC(=O)c1ccc(C(C)(C)C)cc1)c1ccncc1 (stereo not given)	-1.6	0.88
22	COCC(C)N1CC(C(=O)Nc2nnc(CCc3ccccc3)s2)CC1=O (stereo not given)	-1.6	-0.077
23	Cc1ccc(C(=O)CSc2nccc(=O)[nH]2)cc1	-0.7	nt
24	Cc1ccc(CNC(=O)COC(=O)c2ccccc2NCCO)cc1	-0.4	nt

By substructure: those above containing fluorine
nr	SMILES	Ab BasE inh	KSHV LANA nucl
5	COc1ccc(-c2cc(C(F)(F)F)c(C#N)c(SCCCn3c(=O)[nH]c4ccccc43)n2)cc1	1.7	nt
7	CC1CC(C)CN(C(=O)c2ccc(N3CC4CC(C3)c3cccc(=O)n3C4)c(NC(=O)c3ccc(F)cc3)c2)C1 (stereo not given)	-1.1	-0.9
8	COC(=O)c1cnc2c(C(F)(F)F)cccc2c1OC	-1.8	2.8

Remaining list, next part:
nr	SMILES	Ab BasE inh	KSHV LANA nucl
25	COc1ccccc1N1CC(C(=O)OC(C)C(=O)N2CCCc3ccccc32)CC1=O (stereo not given)	1.1	nt
26	Cc1[nH]c(C)c(S(=O)(=O)NC2CCCCCC2)c1C(=O)N1CCCC1	5.1	-0.27
27	O=C(CN1c2ccccc2S(=O)(=O)c2ccccc21)N1CCCCC1	2.6	-0.29
28	N#Cc1ccc(NCC(=O)Nc2ccc(N3CCOCC3)cc2)cc1	3.4	nt
29	CN1C(=O)c2ccc(NC(=O)c3ccc4ncsc4c3)cc2C1=O	2.1	-0.0045
30	Cc1nnc(NC(=O)CSc2nnc(COc3ccc4c(c3)CCCC4)n2C)s1	0.2	0.6
31	Cc1oc(-c2ccccc2)[n+]([O-])c1C	-2.9	0.11
32	N#Cc1c(-c2ccccc2)nc(SCC(=O)OC2CCCC2)[nH]c1=O	0.4	-0.64
33	CC(C)c1cc(=O)n2c([nH]c3ccccc32)c1C#N	2.1	nt
34	O=C(CSc1nncn1-c1ccccc1)c1ccccc1	-1.2	nt
35	COc1ccc2nc(SCC(=O)NN3C(=O)NC4(CCCCC4)C3=O)[nH]c2c1	-1.0	nt
36	Cc1ccccc1OCCN1CCNC1=S	2.8	-0.74
37	COc1ccccc1N=C(NN)c1ccc2ccccc2n1	0.8	0.68
38	CC(=O)Nc1cc(-n2cnnn2)ccc1C	1.6	0.048
39	CC1CC(=S)Nc2ccccc2S1 (stereo not given)	1.0	0.11
40	CCOc1cc(CC(=O)N[C@@H](CC(C)C)c2ccccc2N2CCCCC2)ccc1C(=O)O	-5.0	-0.17&-0.47&1.5
41	O=C1c2ccccc2C(=O)N1CCCc1nc(-c2ccccc2)no1	1.7	-1.5
42	Cc1nc2cc(-c3ccccc3)sc2c(=O)n1N	2.5	-0.23
43	CC(NC(=O)CSc1nc2ccccc2c(=O)n1N)c1ccccc1 (stereo not given)	2.6	-1.3
44	Oc1ccc(N2Cc3ccccc3C2)cc1	-1.9	nt
45	NC(=O)CSc1nnc(SCc2ccc(Cl)cc2)s1	2.7	-0.15
46	CCS(=O)(=O)c1ccc2oc(SCC(=O)NC34CC5CC(CC(C5)C3)C4)nc2c1	1.3	nt
47	C/C(=N\NC(=O)c1ccc(N2CCCC2=O)cc1)c1ccccc1	1.4	0.22
48	Cc1nc2ncccn2c1-c1csc(NCc2ccco2)n1	-2.4	0.45

Entries of single compounds from above:
`O=C1c2ccccc2C(=O)N1CCCc1nc(-c2ccccc2)no1` is listed as Ab BasE inh: 1.7; KSHV LANA nucl: -1.5
`C/C(=N\NC(=O)c1ccc(N2CCCC2=O)cc1)c1ccccc1` is listed as Ab BasE inh: 1.4; KSHV LANA nucl: 0.22
`COc1ccc(C2=[N+]([O-])C(C)(C)N(O)C2C)cc1` (stereo not given) is listed as Ab BasE inh: 1.0; KSHV LANA nucl: nt

Additional compounds.
nr	SMILES	Ab BasE inh	KSHV LANA nucl
49	CC(=O)N1CCOc2ccc(S(=O)(=O)NC3CCCCCC3)cc21	2.3	1.2
50	O=C(NCCCc1ccccc1)N1c2ccccc2Sc2ccccc21	-1.2	nt
51	CN1CCC(=NNC(=O)COc2ccc(Cl)cc2)CC1	1.1	-0.23
52	CCSc1nc2ccccc2n1CC(=O)O	1.3	nt
53	S=c1[nH]nc(C2CC2)o1	1.3	nt
54	CC(c1ccccc1)n1nnc2ccccc21 (stereo not given)	2.9	-0.15
55	O=C(CSc1n[nH]c(=O)[nH]c1=O)Nc1ccc(SC(F)F)cc1	6.8	nt
56	Cc1cc(/C=C2/NC(=O)N(Cc3ccc(Br)cc3)C2=O)c(C)n1-c1ccc2c(c1)OCO2	-0.8	nt
57	CCOC(=O)C1=C(C)N(C2CCCCC2)C(=O)C1	2.1	-1
58	CC1=NC(=O)/C(=C\c2ccc(Cl)cc2)N(C)N1c1ccccc1	-2.1	2.2
59	CCC(SC1=NCCS1)C(=O)Nc1ccccc1OC (stereo not given)	-3.0	0.62
60	Cc1[nH]n(-c2ccccc2)c(=O)c1Cc1c(Cl)cccc1Cl	1.4	nt
61	COc1cc(S(=O)(=O)N2CCNCC2)ccc1-n1cnnn1	1.6	0.13
62	O=C(OC1Cn2c(=O)ccc(=O)n2C1)c1ccccc1Cl	2.6	nt
63	COc1cc(OC)cc(C(=O)NCC(=O)OCC2COc3ccccc3O2)c1 (stereo not given)	-0.2	nt
64	CCOc1ccccc1C(=O)N(CN1CCCC1=O)c1ccccc1	2.2	0.042
65	Cc1cc(NC(=O)c2ccc(CN3CCN(Cc4ccccn4)CC3)cc2)ccc1Cl	-3.7	nt
66	O=C(c1ccc2c(c1)OCCO2)N(c1ccccn1)C1CCCCC1	0.8	nt
67	CC(=O)O[C@H]1C[C@@H]2CC[C@@H]3[C@H](CC[C@@]4(C)[C@H]3C[C@H]([N+]3(C)CCCCC3)[C@@H]4OC(C)=O)[C@@]2(C)C[C@@H]1[N+]1(C)CCCCC1	-1.2	1&-0.96
68	CCOC(=O)c1c(-c2ccco2)csc1NC(=O)COC(=O)Cn1[nH]c(=O)c2ccccc2c1=O	3.3	nt
69	c1ccc(-c2cc(N3CCCC3)nc3cc4c(cc23)OCCO4)cc1	-0.1	nt
70	CCC1CN(C(=O)NCc2ccccc2)c2ccccc2S1 (stereo not given)	-1.3	-0.34
71	CC(C)CNC(=O)C1CCN(c2ccc(S(=O)(=O)N3CCOCC3)cc2)CC1	1.9	-0.041
72	COc1ccccc1C1CCN(C(=O)Nc2ccccc2C#N)CC1	-3.8	1.1
73	COc1ccccc1N(C(=O)c1ccccc1O)C(C)C1CC1 (stereo not given)	2.8	nt
74	Cc1ccc(NC(=O)CC(O)(C(F)(F)F)C(F)(F)F)cc1	-2.7	nt
75	c1ccc(-c2cnc(CSc3ncnc4sccc34)o2)cc1	-1.4	nt
76	CCCCN(C(=S)NC1CCCCC1)c1c(N)n(CCC)c(=O)[nH]c1=O	0.9	nt
77	CN(c1ccccc1)S(=O)(=O)c1ccc(I)cc1	2.4	0.38
78	CCCC(=O)N1c2ccccc2NC2=C(C(=O)CCC2)C1c1ccc(O)c(OC)c1 (stereo not given)	0.8	-0.25
79	CC1CCC2(CC1)NC(=O)N(Nc1ccc(S(=O)(=O)N3CCCC3)cn1)C2=O (stereo not given)	2.5	nt
80	CCOC(=O)c1cnc2c(Cl)c(Cl)ccc2c1NCCOC(=O)C(C)C	-0.2	nt
81	COC(=O)c1[nH]c(C(=O)OC)c(O)c1O	-2.7	nt
82	Cn1ncc(Br)c1NC(=O)CN1CCCCC1	nt	1.7
83	O=S(c1ccc2ccccc2c1)N(Cc1ccc(F)cc1)Cc1ccco1 (stereo not given)	-2.7	-0.19
84	CCOC(=O)C(CC)SC1=NS(=O)(=O)c2cc(Cl)ccc2N1 (stereo not given)	-3.3	0.89
85	Cc1ccc(-c2cc(C(F)F)nc(NCC3CCCO3)n2)cc1 (stereo not given)	1.3	-0.59
86	Cc1ccc2c(CC(=O)N(C)Cc3nc4ccccc4c(=O)[nH]3)coc2c1	1.3	nt
87	COc1ccc2nc(-c3ccc(N)cc3)[nH]c2c1	1.0	0.69
88	CC1C(O)=C(c2ccc(F)cc2)C(=N)N1c1ccccc1 (stereo not given)	1.4	nt
89	Nc1cccc(OCc2ccc(F)cc2)c1	0.9	-0.21
90	CC[n+]1c(/C=C/N(C)c2ccccc2)sc2ccc(OC)cc21	-5.1	nt
91	O=C(NCCc1ccccc1)N1c2ccccc2Sc2ccccc21	0.7	nt
92	CCN(CC)c1nc(NN)nc(Nc2ccc(C)c(Cl)c2)n1	-0.9	-1.2
93	CCn1c(=O)c2c(=O)cc(N)[nH]c2n(Cc2ccccc2)c1=O	2.8	nt
94	Cc1ccc(/C=N/NC(=O)C(c2ccccc2)c2ccccc2)o1	4.4	0.02
95	CC(C)CC1(C)NC(=O)N(CC(=O)c2ccc(N(C)S(C)(=O)=O)cc2)C1=O (stereo not given)	-2.5	nt
96	CC(=O)Nc1ccc(C2N=C(c3cnccn3)NN2)cc1 (stereo not given)	0.0	-1.8
97	S=c1oc(-c2ccccc2)nn1CN1CCCCC1	3.0	0.14
98	O=C(CSC1=NCCS1)NCc1ccco1	-0.1	0.19
99	Fc1ccc(CN2CCCCCC2)cc1F	4.7	-0.16
100	CCc1cccc(C)c1NC(=S)NCCC(=O)O	1.0	nt
101	CC1(C)Cc2cccc(OCCNS(=O)(=O)c3ccc(-n4cnnn4)cc3)c2O1	0.0	-0.91
102	CC(C)NC(=S)N=Nc1c(O)n(C)c2ccccc12	1.1	nt
103	COCCn1nnnc1C(c1cc2c(C)ccc(C)c2[nH]c1=O)N1CCCc2ccccc21 (stereo not given)	-3.9	1.2
104	CCOc1ccc(NCCC(=O)c2ccc(NS(C)(=O)=O)cc2)cc1	0.3	-1.5
105	O=C(O)C1C(C(=O)O)C1C(=O)O (stereo not given)	-0.9	-0.13
106	O=C1NC(=O)C2(COC(c3cccnc3)OC2)S1 (stereo not given)	0.5	-0.27
107	CC1CC(CC(C)C(=O)NC(=S)Nc2nncs2)C(=O)O1 (stereo not given)	1.0	nt
108	CN1C(=O)/C(=C\C2(C)N3CC4(C)CN2CC(C)(C3)C4=O)c2ccccc21 (stereo not given)	2.8	0.007

(further entries)
nr	SMILES	Ab BasE inh	KSHV LANA nucl
109	COc1cc2nc(=S)n3c(c2cc1OC)NC(CCC(=O)NCCN1CCN(c2cccc(Cl)c2)CC1)C3=O (stereo not given)	1.9	-0.041
110	CCn1nnc2cc(C(=O)NC3CCCc4ccccc43)ccc21 (stereo not given)	-2.6	nt
111	COc1ccc(CN(Cc2cccnc2)C(=S)NCc2ccco2)cc1OC	-0.9	-0.034
112	Nc1ccc(C(=O)N/N=C/c2cccn2-c2ccc(S(N)(=O)=O)cc2)cc1	-0.7	nt
113	COc1ccc(CCN(C)C(=O)COc2nncc3ccccc23)cc1OC	-0.9	nt
114	CN(C)S(=O)(=O)c1ccc(C(=O)Nc2c(C#N)oc3ccccc23)cc1	-1.0	nt
115	O=C(N/N=C/c1ccncc1)C1CC1C(=O)N/N=C/c1ccncc1 (stereo not given)	1.2	-0.44
116	CCOC(=O)C1=C(C)Nc2c(C(=O)Nc3ccc(OCC)cc3)cnn2C1c1cc(OC)ccc1OC (stereo not given)	0.2	-0.55
117	COc1ccc(-c2cc(C(F)(F)F)nc(SCC(=O)NN3CCN(C)CC3)n2)cc1	-1.2	0.18

Not all compounds are listed; rates above refer to the full screens.
